# HNF4A DNA FP – change in binding of human HNF4 alpha to DNA; 360,000 compounds, 0.3% hits; P41235; HNF4a-FITC DNA binding, fluorescence polarization, 1 h; AID 1224865; activity change, % at 10 µM; in the data active = activity change above about 30%, passing the limit was not always enough;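 note: controls were the assay level and a saturating level of protein; the project sought stronger binding though the title names inhibitors; some compounds called inactive have numbers as strong as hits; positive values seem to mean higher polarization but the record does not say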
# Target sequence (P41235 whole entry, looked up): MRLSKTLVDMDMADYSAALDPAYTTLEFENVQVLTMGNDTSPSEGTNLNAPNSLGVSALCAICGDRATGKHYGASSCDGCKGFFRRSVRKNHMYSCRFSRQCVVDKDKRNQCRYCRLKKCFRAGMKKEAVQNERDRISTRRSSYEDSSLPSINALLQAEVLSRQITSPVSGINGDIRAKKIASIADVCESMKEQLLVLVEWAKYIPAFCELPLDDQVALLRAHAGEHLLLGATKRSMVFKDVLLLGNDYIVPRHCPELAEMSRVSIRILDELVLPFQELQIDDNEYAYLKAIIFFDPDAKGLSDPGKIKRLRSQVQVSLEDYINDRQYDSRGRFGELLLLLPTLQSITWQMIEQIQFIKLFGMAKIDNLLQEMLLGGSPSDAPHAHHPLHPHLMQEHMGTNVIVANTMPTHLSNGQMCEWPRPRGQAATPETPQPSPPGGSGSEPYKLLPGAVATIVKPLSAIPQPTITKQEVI
# ALR H2O2 inh – inhibitors of human sulfhydryl oxidase ALR. 290,000 compounds, 3.8% hits. AID 485317. purified ALR, DTT oxidation, H2O2 HRP-luminol luminescence. P55789. inhibition, % (test concentration not listed);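 active = mean and each replicate at 75% or more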;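 note: stock transfer was 7.5 nL into about 7.5 µL; 0% = neutral wells and 100% = wells with inactivated enzyme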
# rRNA inh HTS – inhibitors of bacterial rRNA selective over humanized ribosomes; E. coli WT GFP vs humanized-ribosome RFP mutants, fluorescence, 24 h; active compounds read low; DMSO median 0, no signal -100; GFP signal change (wild-type ribosome), % (concentration not given with the values); 350,000 compounds, 1.6% hits; AID 720706;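 active = significant combined selectivity score with lowered wild-type GFP, culture density cut under 30%, mutant RFP and density less affected; inactive = any of these conditions unmet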; note: one replicate is shown; some compounds called inactive have numbers as strong as hits
# UCH37 inh – inhibitors of human deubiquitinating enzyme UCH37 | Q9Y5K5 | purified proteasome/UCH37, Ub-AMC cleavage fluorescence | inhibition, % (test concentration not listed) | 330,000 compounds, 0.33% hits;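 active = mean of two replicates above 20%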;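 note: 0% = compound-free wells with enzyme and 100% = wells lacking proteasome; stock transfer was 100 nL into about 20 µL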
#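 system = Proteasome-associated human UCH37 deubiquitinase | amount = 0.15 nM proteasome as dispensed | medium = pH 7.4 Tris-HCl (50 mM) with ovalbumin, ATP-MgCl2, DTT | incubation = 30 min preincubation with enzyme, 25 min cleavage at room temperature | detection = AMC fluorescence 355/460 nm | read-out basis = percent inhibition | controls = no-proteasome and no-compound wells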
# FGF22 binding – binders of recombinant human FGF22 by thermal shift; AID 651658; calls only at 9.99 µM; 340,000 compounds, 1.5% hits; SYPRO orange fluorescence; percent of sucrose octasulfate shift, DMSO zero; Q9HCT0;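 active = melting point raised past a set limit in the mean and every replicate; three in four hits are not shown here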
# Target sequence (Q9HCT0 whole entry, looked up): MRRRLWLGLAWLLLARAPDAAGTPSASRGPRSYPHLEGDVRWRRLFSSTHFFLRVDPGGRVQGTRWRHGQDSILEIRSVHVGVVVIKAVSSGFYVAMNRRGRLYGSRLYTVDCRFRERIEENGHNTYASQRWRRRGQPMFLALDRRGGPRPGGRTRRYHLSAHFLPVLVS
# B2AR ag – activates human beta-2 adrenergic receptor causing internalization. AID 504454. response, % (no concentration beside the values). 340,000 compounds, 0.43% hits. P07550. Am2.2-beta2AR cells, FAP receptor internalization, flow cytometry; reference of the scale not given here;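 active = response above a set limit, near 3 SD of response in nonfluorescent compounds, cut at about 42% in these data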;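 note: stock transfer was 100 nL into about 11 µL; a reference agonist was the positive control; negative values mostly stem from fluorescent compounds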
# Target sequence (P07550 whole entry, looked up): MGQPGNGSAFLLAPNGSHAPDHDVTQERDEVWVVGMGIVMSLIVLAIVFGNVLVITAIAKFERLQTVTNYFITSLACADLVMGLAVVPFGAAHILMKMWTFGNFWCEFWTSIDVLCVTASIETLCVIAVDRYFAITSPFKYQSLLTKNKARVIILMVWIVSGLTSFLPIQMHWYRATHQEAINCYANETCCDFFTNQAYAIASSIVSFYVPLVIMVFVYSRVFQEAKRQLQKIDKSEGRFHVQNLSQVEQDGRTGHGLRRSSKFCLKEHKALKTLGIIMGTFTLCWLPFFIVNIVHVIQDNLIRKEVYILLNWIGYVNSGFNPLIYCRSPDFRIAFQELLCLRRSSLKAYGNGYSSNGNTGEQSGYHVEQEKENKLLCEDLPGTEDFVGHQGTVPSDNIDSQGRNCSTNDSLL
# Ecoli growth – inhibitors of Escherichia coli growth; 330,000 compounds, 0.21% hits; OD600, 23 h; active compounds read low; OD600 absorbance (no concentration beside the values);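 active = OD600 absorbance below the run mean of sample wells minus 3.6 SD, in any replicate, cut at about 0.56 in these data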;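 note: stock transfer was 300 nL into about 60 µL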
# rRNA inh HTS OD600 – also measured in rRNA inh HTS; calls as there; OD600 change, %; measured here: OD600 growth;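 optical density of the mix in the first replicate; 0 = DMSO median and -100 = no signal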
# rRNA inh HTS RFP – recorded beside rRNA inh HTS, whose call it bears; RFP signal change, %; measured here: RFP humanized mutant strains;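 first replicate; 0 = DMSO median and -100 = no signal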
# * hit, by the source's call; i = inactive; x = not tested or not shown. Not all compounds are listed; rates above refer to the full screens.
SMILES,HNF4A DNA FP,ALR H2O2 inh,rRNA inh HTS,rRNA inh HTS OD600,rRNA inh HTS RFP,UCH37 inh,FGF22 binding,B2AR ag,Ecoli growth
O=S(=O)(c1cccc(-c2n[nH]c(=S)n2Cc2ccccc2)c1)N1CCOCC1,-2.6,50,-4,-13,-2.3,0.9,i,11,0.72
Cc1ccccc1Cn1c(CN2CCN(C(=O)c3ccco3)CC2)nc2c1c(=O)n(C)c(=O)n2C,-1.1,0,-1,-8,1.4,6.0,i,-23,0.76
Cc1ccc(C)c(N2CC(=O)N(c3cc(C)ccc3C)CC2=O)c1,1.6,x,x,x,x,1.2,x,-5,0.72
Cc1cc(C)c(S(C)(=O)=O)c(Oc2ccc(F)cc2)n1,-7.4,3,x,x,x,-3.6,x,-9,0.75
COc1cccc(N/N=C/c2cccc(Br)c2O)c1,1.1,99*,0,7,-0.1,x,i,3,x
Cc1ccc(NC(=O)c2cncc(Br)c2)nc1,4.4,9,8,9,0.3,0.3,i,0,0.67
CCOC(=O)C1C(=O)CC(C)(O)C(C(=O)OCC)C1c1ccco1 (stereo unspecified),-2.1,-3,x,x,x,-0.9,x,0,0.69
Cc1nc2ccccc2c(=O)n1NS(C)(=O)=O,-1.3,-31,x,x,x,-0.5,x,-4,0.78
O=C(O)CC(NC(=O)C(F)(F)F)c1ccc2c(c1)OCO2 (stereo unspecified),0.6,-7,21,17,-2.3,1.0,i,1,0.64
CCCCCC[n+]1c(-c2ccc(Cl)cc2Cl)csc1Nc1ccccc1,0.5,x,x,x,x,2.0,x,3,0.73
COC(=O)c1ccccc1NC(=O)c1ccnn1C,1.2,-2,1,-9,-2.5,3.2,i,3,0.69
COc1ccc(S(=O)(=O)NCc2ccccn2)cc1Cl,-5.4,-2,x,x,x,7.4,x,3,0.68
CN(C)CCN(Cc1ccccc1)c1ccccn1,0.8,-17,7,11,-0.9,3.3,i,-2,0.71
COCCN1CCN(C(=O)C2CCC(=O)N(Cc3ccc(Cl)cc3)C2)CC1 (stereo unspecified),9.7,x,8,10,-1.7,3.5,i,7,0.67
COC(=O)CSC1=C(C#N)C(=O)NC(c2ccccc2)S1 (stereo unspecified),1.8,x,x,x,x,18,x,-2,0.62
CCOCCCNC(=O)C(c1ccc(C)cc1)N(Cc1ccc2c(c1)OCO2)C(=O)c1cnccn1 (stereo unspecified),1.2,-1,x,x,x,5.2,x,-2,0.69
Cc1ccc(C)c(CN2CCC(CNC(=O)Nc3cccc(Cl)c3C)CC2)c1,-1.8,-4,9,0,8.1,x,i,-2,x
CCOC(=O)C[C@H]1c2ccc(C(F)(F)F)cc2S(=O)(=O)N1C(C)(C)C,-1.7,-12,4,0,3.3,3.3,i,-1,x
CC1CCCC(C)N1C(=O)COC(=O)CNC(=O)c1ccccc1 (stereo unspecified),-1.7,1,25,10,2.8,1.9,i,3,0.7
C=CCNC(=O)C1CC2Cn3c(nc4cc5ccccc5cc43)C2N1C (stereo unspecified),0.8,x,8,8,-6.4,1.8,i,3,0.71
CCCCN(C(=O)c1c(CC)noc1C)c1c(N)n(CCC)c(=O)[nH]c1=O,1.8,-2,1,1,1.6,-0.6,i,-1,0.7
COc1ccccc1C1CC(c2ccc(Cl)cc2)Nc2ncnn21 (stereo unspecified),0.1,-4,x,x,x,4.1,x,7,0.78
CCc1cc2cc3c(cc2nc1SCC(=O)Nc1nccs1)OCO3,12,-4,x,x,x,5.0,x,-1,0.72
COc1cccc(/C=C(/C#N)c2ccc(Cl)cc2)c1OCc1cccc(C(=O)O)c1,-3.8,48,-31,-38,-6.7,-1.1,i,3,0.65
CC(=O)Nc1ccc(Nc2ccccc2)cc1,2.5,99*,1,4,-1.3,0.9,i,-1,0.66

# (more compounds)
SMILES,HNF4A DNA FP,ALR H2O2 inh,rRNA inh HTS,rRNA inh HTS OD600,rRNA inh HTS RFP,UCH37 inh,FGF22 binding,B2AR ag,Ecoli growth
COc1ccc(COC(=O)Nc2c(SC)nsc2SC)cc1,5.1,-5,6,14,-8.5,-0.5,i,-5,0.64
C=CCn1c(SCC(=O)CC(=O)OCC)nc2cc(C(=O)N3CCC(C(N)=O)CC3)ccc2c1=O,-0.6,27,21,12,4.4,3.4,i,-4,0.71
CCc1ccc(CN(C)Cc2nc(-c3cccc(Cl)c3)no2)nc1,2.4,-7,-13,-3,-0.2,1.6,i,2,0.65
CNC(=S)N=Nc1c(O)[nH]c2ccccc12,5.7,0,x,x,x,11,x,3,0.66
CC(=O)NC(Cc1ccc(F)cc1)C(=O)NC1CCN(c2nnnn2-c2ccccc2)CC1 (stereo unspecified),1.7,2,x,x,x,6.2,x,1,0.74
Cc1ccc(C2(C)NC(=O)N(CC(=O)Nc3ccc(S(=O)(=O)Nc4nccs4)cc3)C2=O)cc1 (stereo unspecified),1.0,96*,8,12,1.4,1.3,i,2,0.59
Cc1onc(-c2ccccc2)c1C(=O)OCC(=O)Nc1ccc2c(c1)OCO2,1.6,-7,x,x,x,1.5,x,-15,0.71
CCCCOC(=O)Cn1c(=N)n(CCC)c2ccccc21,-2.4,-3,x,x,x,0.9,x,3,0.77
Cc1c(C(=O)Nc2cccnc2)oc2ccc(Br)cc12,1.2,2,16,5,9.5,1.4,i,-5,0.66
Cc1ccc(NC(=O)C2C3C=CC4(CN(Cc5cccnc5)C(=O)C24)O3)cc1 (stereo unspecified),-3.0,x,6,21,-1.1,2.6,i,8,0.73
Cc1ccc(/C=N/NC(=O)CCn2nc(C)cc2C)c(C)c1,3.1,7,-15,-4,-0.7,x,i,-14,x
Cc1nc(SCC(=O)N2c3ccccc3NC(=O)CC2C)c2c(C)c(C)sc2n1 (stereo unspecified),5.0,x,13,2,0.0,-0.2,i,3,0.64
CC(O)CNc1nc2c(c(=O)n(C)c(=O)n2C)n1C/C=C/c1ccccc1 (stereo unspecified),-0.3,3,-6,3,2.2,1.2,i,10,0.66
Nc1ccc(-c2nnn(Cc3ccccc3F)n2)cc1,-0.8,x,3,5,-1.1,-0.4,i,2,0.64
CCOc1ccc(NS(=O)(=O)c2ccc(C(=O)N(C)CC(=O)Nc3ccc(C)cc3)cc2)cc1,-1.2,-13,-5,-2,0.8,1.3,i,-1,0.65
O=C(CCl)Nc1c(C(=O)Nc2ccc3c(c2)OCCO3)oc2ccccc12,1.8,65,x,x,x,-0.4,i,10,0.73
O=C(c1ccoc1)N1CCCC(CO)(CCCc2ccccc2)C1 (stereo unspecified),2.3,x,-3,-8,-3.0,0.5,i,5,0.72
O=C(NCc1ccccc1Cl)C1CCN(S(=O)(=O)c2cccc3nonc23)CC1,-3.4,1,3,3,-0.2,5.2,i,-2,0.74
O=C(CN1CCN(S(=O)(=O)c2ccccc2)CC1)Nc1cccc(C(F)(F)F)c1,1.6,x,x,x,x,4.3,x,2,0.71
Cc1nn(-c2ccccc2)c(C)c1C(=O)OCC(=O)NCc1ccco1,3.1,0,x,x,x,6.0,x,2,0.73
CCOC(=O)CC1(CC(=O)OCC)NC(=O)c2c(C)sc(C(=O)OCC)c2N1,1.6,2,x,x,x,-111,x,1,0.73
COC(=O)c1sccc1NC(=O)COc1ccc(C)cc1,-0.8,x,6,11,0.9,2.6,i,-1,0.73
Cc1cccc(N2C(=O)c3ccc(Br)cc3C2=O)n1,-1.8,x,7,9,-1.2,x,i,-10,x
COc1cc(N=C(N)N=C(N)N)cc(OC)c1,1.5,-12,19,8,2.7,4.5,i,7,0.71
OCCN(Cc1ccccc1)CC1CC2C=CC1C2 (stereo unspecified),-2.1,-18,x,x,x,-0.2,x,0,0.64

# An excerpt of these results, with two lines to a compound:
# Each structure is followed by: HNF4A DNA FP	ALR H2O2 inh	rRNA inh HTS	rRNA inh HTS OD600	rRNA inh HTS RFP	UCH37 inh	FGF22 binding	B2AR ag	Ecoli growth
COC(=O)CSC1=C(C#N)C(=O)NC(c2ccccc2)S1 (stereo unspecified)
  1.8	x	x	x	x	18	x	-2	0.62
CCOCCCNC(=O)C(c1ccc(C)cc1)N(Cc1ccc2c(c1)OCO2)C(=O)c1cnccn1 (stereo unspecified)
  1.2	-1	x	x	x	5.2	x	-2	0.69
Cc1ccc(C)c(CN2CCC(CNC(=O)Nc3cccc(Cl)c3C)CC2)c1
  -1.8	-4	9	0	8.1	x	i	-2	x
CCOC(=O)C[C@H]1c2ccc(C(F)(F)F)cc2S(=O)(=O)N1C(C)(C)C
  -1.7	-12	4	0	3.3	3.3	i	-1	x
CC1CCCC(C)N1C(=O)COC(=O)CNC(=O)c1ccccc1 (stereo unspecified)
  -1.7	1	25	10	2.8	1.9	i	3	0.7
C=CCNC(=O)C1CC2Cn3c(nc4cc5ccccc5cc43)C2N1C (stereo unspecified)
  0.8	x	8	8	-6.4	1.8	i	3	0.71
CCCCN(C(=O)c1c(CC)noc1C)c1c(N)n(CCC)c(=O)[nH]c1=O
  1.8	-2	1	1	1.6	-0.6	i	-1	0.7
COc1ccccc1C1CC(c2ccc(Cl)cc2)Nc2ncnn21 (stereo unspecified)
  0.1	-4	x	x	x	4.1	x	7	0.78
CCc1cc2cc3c(cc2nc1SCC(=O)Nc1nccs1)OCO3
  12	-4	x	x	x	5.0	x	-1	0.72
COc1cccc(/C=C(/C#N)c2ccc(Cl)cc2)c1OCc1cccc(C(=O)O)c1
  -3.8	48	-31	-38	-6.7	-1.1	i	3	0.65
CC(=O)Nc1ccc(Nc2ccccc2)cc1
  2.5	99*	1	4	-1.3	0.9	i	-1	0.66
COc1ccc(COC(=O)Nc2c(SC)nsc2SC)cc1
  5.1	-5	6	14	-8.5	-0.5	i	-5	0.64
C=CCn1c(SCC(=O)CC(=O)OCC)nc2cc(C(=O)N3CCC(C(N)=O)CC3)ccc2c1=O
  -0.6	27	21	12	4.4	3.4	i	-4	0.71

# Carrying on:
SMILES,HNF4A DNA FP,ALR H2O2 inh,rRNA inh HTS,rRNA inh HTS OD600,rRNA inh HTS RFP,UCH37 inh,FGF22 binding,B2AR ag,Ecoli growth
COc1ccc(/C=N/n2c(-c3cc(C)[nH]n3)n[nH]c2=S)cc1OC,-1.5,x,-6,-13,-2.3,x,i,-4,x
CC(=O)Nc1cccc(-c2cnc3ccccc3n2)c1,1.3,-6,x,x,x,8.1,x,-7,0.72
CS(=O)(=O)c1ccc2nc(NC(=O)C3COc4ccccc4O3)sc2c1 (stereo unspecified),0.0,1,x,x,x,1.3,x,9,0.66
COc1ccc(-n2ccnc2SCC(=O)NC2CCCC2)c(OC)c1,-1.6,14,14,11,1.9,-2.8,x,-6,0.69
COc1cccc(NC(=O)CN(C)C(=O)c2ccccc2Sc2ccccc2C#N)c1,0.2,x,-18*,-11*,7.9*,4.1,i,1,0.74
Cc1ccc2[nH]c(=O)c(C(c3nnnn3C(C)(C)C)N(Cc3ccco3)CC3CCCO3)cc2c1 (stereo unspecified),0.8,-4,x,x,x,-0.8,x,-2,0.7
O=C(Nc1c(-c2ccc(Cl)cc2)[nH][nH]c1=O)c1ccccn1,3.5,x,8,7,-0.5,x,i,x,x
O=C(/C=C/Nc1ccc(OC(F)(F)F)cc1)C(F)(F)F,1.2,1,x,x,x,4.0,x,7,0.72
